# Assay outcomes as filed in PubChem.
# TRPV1 potentiator – HTS Assay for Compounds that Act as Potentiators of the Vanilloid Receptor 1. potentiation, % at 8.33 µM. Transient receptor potential cation channel subfamily V member 1 (Homo sapiens), Q8NER1. TRPV1-expressing cells, Fluo-8 calcium influx, capsaicin EC20 potentiation; host cell line not named in the record; control for the full effect not named in the record. 320,000 tested, 0.02% active; active means potentiation above 80%; inconclusive means 30% to 80%; inactive means below 30%; also: 0% is about no effect
# Target sequence (Q8NER1 whole entry, looked up): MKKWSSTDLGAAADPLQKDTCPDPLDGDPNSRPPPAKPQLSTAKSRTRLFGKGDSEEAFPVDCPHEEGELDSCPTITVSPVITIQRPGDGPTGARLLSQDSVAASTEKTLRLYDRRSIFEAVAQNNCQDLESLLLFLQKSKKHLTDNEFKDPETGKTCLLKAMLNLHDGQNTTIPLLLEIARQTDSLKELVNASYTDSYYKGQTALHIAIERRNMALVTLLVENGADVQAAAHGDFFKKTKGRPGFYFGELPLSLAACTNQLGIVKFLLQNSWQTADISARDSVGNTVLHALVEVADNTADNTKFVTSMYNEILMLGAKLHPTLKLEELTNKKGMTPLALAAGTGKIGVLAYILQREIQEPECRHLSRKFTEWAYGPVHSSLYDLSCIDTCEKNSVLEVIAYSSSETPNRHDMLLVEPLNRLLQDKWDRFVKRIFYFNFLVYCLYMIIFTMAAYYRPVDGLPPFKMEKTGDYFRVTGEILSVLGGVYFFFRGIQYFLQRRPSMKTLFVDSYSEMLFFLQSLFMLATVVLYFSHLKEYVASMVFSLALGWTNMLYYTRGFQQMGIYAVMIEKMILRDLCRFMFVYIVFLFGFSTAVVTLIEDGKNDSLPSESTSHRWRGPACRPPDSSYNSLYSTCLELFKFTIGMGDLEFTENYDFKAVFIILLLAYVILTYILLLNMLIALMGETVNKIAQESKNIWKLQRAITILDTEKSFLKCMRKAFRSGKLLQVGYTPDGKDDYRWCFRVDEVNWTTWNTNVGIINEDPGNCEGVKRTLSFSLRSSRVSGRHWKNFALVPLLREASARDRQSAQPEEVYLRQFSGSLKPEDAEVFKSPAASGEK
#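 TRPV1-expressing cells were cultured overnight at 35.5C and loaded with Fluo-8 calcium dye for 40 to 90 min at room temperature. After a 10 s baseline, compound was added and calcium influx was read kinetically for 3 min (ex 480/em 520 nm).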
# Six1-Eya2 inh – qHTS Assay for Inhibitors of the Six1/Eya2 Interaction. AlphaScreen GST-Six1/His-Eya2 binding, biochemical; active compounds read low; control for the full effect not named in the record. activity change, % (concentration not given with the values). 360,000 tested, 0.56% active; in the data active = activity change below about -65%; inconclusive = about -30% to -65%; inactive = above about -30%; also: % is scaled to controls: 0 for no effect and ±100 for the full control effect
#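 Compounds are tested against tagged Six1 and Eya2 proteins bridged by glutathione donor and nickel acceptor beads; after a one-hour incubation at 37 °C without light, AlphaScreen emission is recorded.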
# CtBP-E1A blk – qHTS Assay for Inhibitors of the CtBP/E1A Interaction; CtBP / adenovirus E1A interaction (AlphaScreen); AlphaScreen GST-E1A/His-CtBP binding, 1536-well; active compounds read low; control for the full effect not named in the record; activity change, % (concentration not given with the values); 340,000 tested, 0.49% active; AID 651724, 2012; in the data active means activity change below about -65%; inconclusive means about -30% to -65%; inactive means above about -30%; also: % is scaled to controls: 0 for no effect and ±100 for the full control effect
#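 Homogeneous bead-based format: GST-tagged E1A captured on glutathione donor beads, His-tagged CtBP on nickel acceptor beads; compounds precede bead addition by 2 h at 37 °C.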
# TRPML1 ag – qHTS for Agonists of the Human Mucolipin Transient Receptor Potential 1 (TRPML1) | Mucolipin-1 (Homo sapiens), Q9GZU1 | TRPML1-expressing cells, Ca2+ dye fluorescence, FDSS; host cell line not named in the record; reference of the full effect not given here | activation, % (test concentration not listed) | 410,000 tested, 0.12% active | AID 624414, 2012; in the data active = activation above about 50%; inconclusive = about 30% to 50%; inactive = below about 30%; also: 0% is about no effect; the text of the record puts the active cut at 80%
#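 Agonist activity was taken from a 110 s kinetic Ca2+ dye read on the FDSS after pinning compounds onto TRPML1-DL cells. The cells were seeded at 1,500/well with Tet inducer, incubated about 16 h, then dye-loaded at room temperature.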
# TRPML1 blocker – qHTS for Inhibitors of the Human Mucolipin Transient Receptor Potential 1 (TRPML1) | Mucolipin-1 (Homo sapiens), Q9GZU1 | TRPML1-inducible cells, Ca2+ dye fluorescence, FDSS; active compounds read low; inhibition of EC80 agonist-evoked calcium signal | activity change, negative = inhibition, % (no concentration beside the values) | 390,000 tested, 0.02% active | AID 624415, 2012; in the data active means activity change below about -50%; inconclusive means about -30% to -50%; inactive means above about -30%;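 also: stimulus is agonist 54-4 at its EC80 concentration; % is scaled to controls: 0 for no effect and ±100 for the full control effect; compound concentration not given in the record; the text of the record puts the active cut at -80%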
#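 Calcium fluorescence in TRPML1-DL cells induced overnight with Tet: a 110 s read after compound pin addition, then a 110 s antagonist read after challenge with 54-4 at 4 uM final (EC80).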
# D2 PAM – Beta-Arrestin HTS for Positive Allosteric Modulators of the Human D2 Dopamine Receptor: Potentiators | D(2) dopamine receptor (Homo sapiens), P14416 | DiscoveRx D2 beta-arrestin cells, luminescence, 90 min; 100% = 57 uM dopamine signal | potentiation, % (no concentration beside the values) | 360,000 tested, 0.23% active | AID 624464, 2012; active = potentiation of 50% or more; inconclusive = 30% to 50%; inactive = 30% or less;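 also: compound concentration not given in the record; tested on top of an EC20 dose of dopamine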
#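 PathHunter beta-arrestin assay in DiscoveRx D2 cells. Compounds were added with an EC20 of dopamine (50 nM final) for 90 min at 37 deg C. Luminescence was read 1 h after detection reagent, with 57 uM dopamine as the EC100 control.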
# * = called active by the depositor; ? = inconclusive; / = not tested or not shown.
nr	SMILES	Six1-Eya2 inh	TRPML1 ag	TRPV1 potentiator
1	CN(C)S(=O)(=O)c1cccc(-c2nn(-c3ccccc3)cc2/C=C2\SC(=S)NC2=O)c1	-26	0.0	12
2	COc1c(O)cccc1-c1nnn(CCC(=O)OCC(=O)c2ccccc2)n1	-1	1.1	4
3	O=C(NCc1ccco1)c1ccc(CS(=O)c2ccccc2Cl)o1 (stereo not drawn)	1	-0.6	/
4	COc1cccc(C(=O)NCCS(=O)(=O)N2CC(C)CC(C)C2)c1 (stereo not drawn)	-1	-0.7	?
5	CCCn1nnnc1NCc1c(F)cccc1Cl	2	-0.4	0
6	CC(=O)c1ccc(N(CC(=O)NC2CCCC2)C(=O)CCC(=O)Nc2cc(C)on2)cc1	5	0.6	10
7	Cc1nonc1OC(C)CNCCNc1ccc([N+](=O)[O-])cc1 (stereo not drawn)	-7	1.1	-24
8	CC(C)=CCN1CCN(Cc2cc3ccccc3[nH]2)CC1CCO (stereo not drawn)	5	0.0	?
9	COc1ccccc1NS(=O)(=O)c1ccc(N2CCOCC2)c(NC(=O)c2ccco2)c1	-7	-0.2	4
10	COc1cccc(NC(=S)N2c3ccccc3CC2C)c1 (stereo not drawn)	-2	-0.1	-4
11	CCOc1ccccc1N1CCN(C(=O)c2c(-c3c(F)cccc3Cl)noc2C)CC1	-10	0.5	/
12	CC(C)(C)NC(=O)CN(Cc1cccs1)C(=O)CN1C(=O)C(=O)c2ccccc21	3	0.1	1

nr	TRPML1 blocker	CtBP-E1A blk	D2 PAM
1	10	-13	6
2	-2	3	2
3	-2	0	-5
4	8	-5	17
5	-11	/	-7
6	-1	0	-12
7	-2	-10	-20
8	-20	/	-43
9	9	2	12
10	-8	1	5
11	-1	-1	-4
12	-6	-8	-6

# Carrying on.
nr	SMILES	Six1-Eya2 inh	TRPML1 ag	TRPV1 potentiator
13	O=C(CCN1CCc2ccccc2C1)Nc1ccc(F)cc1	0	-0.3	/
14	Cc1ccccc1N1CCN(C2CCCN(C(=O)CSc3ccccn3)C2)CC1 (stereo not drawn)	-9	-0.3	/
15	C/C=C1\NC(=O)[C@H](C)NC(=O)[C@@H](NC(=O)[C@@H](Cc2ccc(O)cc2)NC(=O)[C@@H](NC(=O)/C(C)=C/C)C(C)C)[C@@H](C)OC(=O)[C@H](CCCCc2ccc(O)cc2)NC(=O)[C@@H](CCC(=O)OC)NC1=O	0	-0.6	/
16	O=C(NC(=S)Nc1ccccc1CO)C1CCCCC1	4	-0.5	/
17	Cc1nc(N2CCOCC2)c(C#N)c2c1COC(C)(C)C2	3	0.9	-4
18	Cc1ccccc1Nc1nc(=O)c2cc([N+](=O)[O-])ccc2s1	-4	2.8	3
19	Cc1ccn2c(NCc3ccc4c(c3)OCO4)c(-c3ccc(O)cc3)nc2c1	2	-0.2	-17
20	COc1ccc(CNC(=O)c2c(F)c(F)c(F)c(F)c2F)cc1	0	-0.9	-26
21	Cc1ccc(P(C)(=O)c2ccc(C)cc2)cc1	0	-1.0	7
22	CC(C)NC(=S)NC(=O)/C=C/c1cccc2ccccc12	13	0.8	3
23	CCC1CCCCN1CCCNC(=O)CCCNC(=O)Cn1cnc2sc3c(c2c1=O)CCCC3 (stereo not drawn)	0	-0.2	11
24	CC(=O)Nc1cc(C(=O)N2CCOCC2)ccc1S(=O)(=O)c1ccc(C)cc1	-1	-0.6	-5

nr	TRPML1 blocker	CtBP-E1A blk	D2 PAM
13	-14	-2	-38
14	-16	-1	-17
15	/	3	-1
16	0	-1	-5
17	-4	7	2
18	8	-9	-8
19	8	-1	3
20	-1	-11	-9
21	-3	0	-7
22	-7	3	-11
23	-5	-14	3
24	10	-2	0

# The list continues.
nr	SMILES	Six1-Eya2 inh	TRPML1 ag	TRPV1 potentiator
25	CCn1c(SCC(=O)N2CCCCC2C)nc2c1c(=O)n(C)c(=O)n2C (stereo not drawn)	7	-0.2	1
26	COc1ccc(-c2nc(C#N)c(N3CCC(C(N)=O)CC3)o2)cc1OC	1	0.3	-5
27	O=C(N/N=C/c1ccc(Cl)c([N+](=O)[O-])c1)c1cc(-c2ccccc2)nc2ccccc12	12	1.0	-7
28	Cc1ccc(-c2csc(C(O)(c3ccccc3)C(F)(F)F)n2)cc1C (stereo not drawn)	6	0.5	/
29	COc1ccc(OC)c(NC(=O)c2sc3nc(Cc4ccccc4)cc(C(F)(F)F)c3c2N)c1	7	3.0	4
30	COc1ccc(N(C(=O)c2ccccc2OC(C)=O)C(C)C2CC2)cc1 (stereo not drawn)	-1	-0.1	-5
31	CC(C)c1ccc(NC(=O)c2ccccc2NC(=O)C2CC=CCC2C(=O)O)cc1 (stereo not drawn)	0	0.2	-4
32	COc1ccc(NC(=O)c2cc(S(=O)(=O)N3CCOCC3)ccc2C)cc1S(=O)(=O)N1CCOCC1	-6	-0.5	/
33	CC1Oc2ccccc2C=C1C1/C(=C(/O)c2ccccc2)C(=O)C(=O)N1CCCN(C)C (stereo not drawn)	-11	-0.4	7
34	CCCC(NC(=O)C(C)Sc1nnnn1C1CC1)c1ccccc1 (stereo not drawn)	0	-0.6	-24
35	CC1(C)CC(NS(=O)(=O)c2cccc3ccccc23)CC(C)(C)N1	4	0.2	-1
36	CCOc1ccc(CCNS(=O)(=O)c2ccc3c(c2)NC(=O)CO3)cc1OCC	2	0.2	13

nr	TRPML1 blocker	CtBP-E1A blk	D2 PAM
25	-5	-11	-5
26	-5	-4	-10
27	5	/	-11
28	/	13	-6
29	-15	5	-5
30	11	6	-4
31	12	4	8
32	11	4	5
33	-6	-1	-9
34	-4	/	-10
35	-4	7	-26
36	-23	-10	-4

# Compound profiles, as listed above. Order of screens: Six1-Eya2 inh	TRPML1 ag	TRPV1 potentiator	TRPML1 blocker	CtBP-E1A blk	D2 PAM
# O=C(N/N=C/c1ccc(Cl)c([N+](=O)[O-])c1)c1cc(-c2ccccc2)nc2ccccc12 is listed as 12	1.0	-7	5	/	-11
# COc1ccc(N(C(=O)c2ccccc2OC(C)=O)C(C)C2CC2)cc1 (stereo not drawn) is listed as -1	-0.1	-5	11	6	-4
# COc1ccc(-c2nc(C#N)c(N3CCC(C(N)=O)CC3)o2)cc1OC is listed as 1	0.3	-5	-5	-4	-10
# CCOc1ccc(CCNS(=O)(=O)c2ccc3c(c2)NC(=O)CO3)cc1OCC is listed as 2	0.2	13	-23	-10	-4

# Additional records follow.
nr	SMILES	Six1-Eya2 inh	TRPML1 ag	TRPV1 potentiator
37	O=C(NC(=S)Nc1cc(C(F)(F)F)ccc1N1CCOCC1)c1ccc(-c2cccc(Cl)c2)o1	1	-0.5	6
38	CCCOc1ccc(C=Nc2ccc(OC)c(S(=O)(=O)N3CCOCC3)c2)c(O)c1	1	-0.3	8
39	CNC(=O)CSc1nc2cccnc2n1C1CCCCC1	-3	/	-3
40	Cc1ccc(C(=O)CSc2nc(-c3ccccc3)cc(=O)[nH]2)cc1	1	-0.2	19
41	COc1ccc(C(=O)NCC(=O)N/N=C/C(C)=C/c2ccco2)cc1OC	-8	0.4	7
42	NS(=O)(=O)c1ccc(NC(=O)COC(=O)Cc2ccc(Cl)cc2)cc1	5	0.6	-19
43	COc1cc(N2CCCC2)ccc1C=O	5	-0.5	-8
44	CC(C)CCOc1ccc(C2(C)NC(=O)N(CN3CCOCC3)C2=O)cc1 (stereo not drawn)	4	0.2	-10
45	Cc1cc(C)c(NC(=O)CN(C)C(=O)CCN2C(=O)C3CCCCC3C2=O)c(C)c1 (stereo not drawn)	25	-0.3	/
46	Cc1ccc(C)c(N=Cc2ccc(-c3ccc([N+](=O)[O-])cc3)o2)c1	?	0.0	-2
47	CC(=O)c1ccc(NC(=O)CCC(=O)N2CC(C)Oc3ccc(C)cc32)cc1 (stereo not drawn)	1	1.7	-12
48	O=C(CSc1nncs1)NCc1ccc(F)cc1	-1	0.4	7

nr	TRPML1 blocker	CtBP-E1A blk	D2 PAM
37	-8	2	-13
38	-3	0	-2
39	/	/	-5
40	-5	5	-5
41	-21	-9	-15
42	-12	-3	-2
43	15	0	-3
44	-26	2	15
45	9	0	-21
46	16	-27	-4
47	2	-17	-19
48	-5	0	-6

# (next part)
nr	SMILES	Six1-Eya2 inh	TRPML1 ag	TRPV1 potentiator
49	O=S(=O)(Nc1ccc(O)c(CN2CCCCC2)c1)c1ccccc1	-7	-0.2	-3
50	COc1ccccc1NC(=O)Nc1nc(CC(=O)NCc2cccnc2)cs1	-4	0.3	4
51	CCn1c(=O)cc(SCC(=O)Nc2cccc(SC)c2)c2ccccc21	-8	1.7	-4
52	CN(C)c1ccc(CN(C(=O)c2ccccc2Br)C2CCS(=O)(=O)C2)cc1 (stereo not drawn)	-4	2.8	-1
53	COc1cc2ccccc2nn1	0	1.0	1
54	COC(=O)C1=C(C)NC(=O)NC1c1ccc(OCC(=O)N2CCCCC2)cc1 (stereo not drawn)	8	-0.2	/
55	Cc1ccc(N(C(=O)c2sc(C)nc2C)C(C(=O)NC(C)(C)C)c2ccncc2)cc1 (stereo not drawn)	3	-0.3	-5
56	O=C(c1ccccc1S(=O)(=O)NCc1ccccc1)N1CCCC1	-7	-0.3	2
57	CC(OC(=O)c1ccc2c(c1)OCCO2)C(=O)c1ccccc1 (stereo not drawn)	11	0.1	-8
58	COC(C[C@@H](O)C[C@@H](O)COCc1ccccc1)OC	2	-1.0	28
59	COC(=O)COc1cc(Cl)c(C=O)cc1OC	8	-0.7	-1
60	CCOc1cccc(NC(=O)C2CCCN(S(=O)(=O)c3ccc(OC)cc3)C2)c1 (stereo not drawn)	-8	1.4	?

nr	TRPML1 blocker	CtBP-E1A blk	D2 PAM
49	-9	-2	-9
50	21	7	-14
51	-1	2	-17
52	19	/	-8
53	29	6	-6
54	16	6	-22
55	19	0	-5
56	-8	-3	-5
57	-5	8	0
58	15	6	-9
59	3	/	-2
60	-9	0	6

# Later entries:
nr	SMILES	Six1-Eya2 inh	TRPML1 ag	TRPV1 potentiator
61	CCCCCCNCCn1cnc2c(N)ncnc21	6	0.8	-1
62	CC(=O)c1ccc(OCCCOc2cccc3cccnc23)cc1	0	-0.1	21
63	CC(=N\Nc1ccc(Cl)cc1)/C(=N/O)C(=O)Nc1ccccc1	10	0.9	7
64	CCCCOC(=O)Nc1cccc(C(=O)OCC)c1	17	2.3	-10
65	Cc1c(N2C(=O)c3ccc(F)cc3C2=O)c(=O)n(-c2ccccc2)n1C	18	0.3	-4
66	Cc1nc2ccc(F)cc2cc1C(=O)NCc1ccco1	0	-0.3	-6
67	CCN(CC)S(=O)(=O)c1ccc(N2CCOCC2)c(NC(=O)CN2C(=O)NC3(CCCC3)C2=O)c1	4	-0.4	/
68	Cc1ccc(S(=O)(=O)NC2CCCC2)cc1C(N)=O	12	-0.3	7
69	COc1ccc(C(=O)O)cc1S(=O)(=O)NCc1ccncc1	0	-0.6	/

nr	TRPML1 blocker	CtBP-E1A blk	D2 PAM
61	22	4	-15
62	-4	2	-2
63	-4	-1	-12
64	21	7	-11
65	7	28	-18
66	-6	9	-5
67	9	4	1
68	2	2	-5
69	8	-8	-3
